Ecoli rRNA inh = reduced GFP signal of wild-type E. coli, primary screen, bacterial rRNA inhibitor project, GFP/RFP fluorescence, OD600, single point; E. coli WT GFP vs humanized-ribosome RFP mutants, 24 h; stronger effect = lower value; DMSO median 0, no signal -100; GFP signal change (wild-type ribosome), % (no concentration beside the values); actives 1.6% (n = 350,000);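 active means significant combined selectivity score with lowered wild-type GFP, culture density cut under 30%, mutant RFP and density less affected; inactive means any of these conditions unmet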; further: one replicate is shown; some compounds called inactive have numbers as strong as hits
FGF22 binding = binders of human FGF22 protein, primary screen, FGF22 synaptogenesis inhibitor project, biophysical, thermal shift, single point; AID 651658, 2012; calls only at 9.99 µM; recombinant FGF22 thermal shift, SYPRO orange fluorescence; percent of sucrose octasulfate shift, DMSO zero; actives 1.5% (n = 340,000); Fibroblast growth factor 22 (Homo sapiens), Q9HCT0;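 active means melting point raised past a set limit in the mean and every replicate; three in four hits are not shown here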
Target sequence (Q9HCT0 whole entry, looked up): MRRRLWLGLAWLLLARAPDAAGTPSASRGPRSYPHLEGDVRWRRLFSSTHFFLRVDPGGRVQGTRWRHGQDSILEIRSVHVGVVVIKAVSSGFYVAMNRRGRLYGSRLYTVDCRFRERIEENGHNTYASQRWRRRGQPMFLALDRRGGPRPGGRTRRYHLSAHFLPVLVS
Ecoli rRNA inh OD600 = recorded beside Ecoli rRNA inh, whose call it bears; OD600 change, %; measured here: OD600 growth;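 optical density of the mix in the first replicate; 0 = DMSO median and -100 = no signal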
Ecoli rRNA inh RFP = also measured in Ecoli rRNA inh; calls as there; RFP signal change, %; measured here: RFP humanized mutant strains;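 first replicate; 0 = DMSO median and -100 = no signal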
* = called active by the depositor; i = inactive; & = joins results of further samples.

SMILES,Ecoli rRNA inh,Ecoli rRNA inh OD600,Ecoli rRNA inh RFP,FGF22 binding
Cn1cnc(S(=O)(=O)N2C[C@@H]3N[C@H](C2)C3c2ccc(-c3ccccc3F)cc2)c1 (some centres not stated),-4&1,-17&1,-3.2&-3.1,i
COCC(=O)Nc1ccc2c(c1)C(=O)N(C)[C@@H]1CC[C@@H](CC(=O)NC3CCCC3)O[C@@H]1CO2,4,4,0.9,i
O=C(CN1CCOCC1)N1CC[C@H]2[C@H](CO)Nc3ccc(Br)cc3[C@H]21,0,10,0.7,i
C[C@@H]1CCCCO[C@H](CN(C)C(=O)c2ccncc2)[C@@H](C)CN([C@@H](C)CO)C(=O)c2cc(NC(=O)CCC(F)(F)F)ccc2O1,0,4,0.0,i
CCCNC(=O)C[C@H]1C[C@@H]2c3cc(NC(=O)c4ccc5c(c4)OCO5)ccc3O[C@@H]2[C@H](CO)O1,-2,-9,-0.3,i
CC(=O)Nc1cccc(-c2nc3ccccc3n2C(C)C(=O)NC(C)(C)C)c1 (configuration not stated),13,17,2.6,i
CNC(=O)C[C@@H]1CC[C@@H]2[C@H](COC[C@@H](O)CN2Cc2ccc(Cl)c(Cl)c2)O1,-5,9,-3.2,i
CC(=O)NCc1ccc(OCCCN2CCC(C(O)(c3ccccc3)c3ccccc3)CC2)cc1,12,17,2.7,i
COc1ccc(S(=O)(=O)Nc2ccc3c(c2)C(=O)N([C@@H](C)CO)C[C@@H](C)[C@@H](CN(C)C(=O)Nc2ccccc2)OCCCC[C@@H](C)O3)cc1,-3,0,-3.9,i
CN1C(=O)c2cc(NC(=O)c3cccc(F)c3)ccc2OC[C@H]2O[C@@H](CC(=O)O)CC[C@@H]21,2,2,0.8,i
C[C@H]1CN([C@@H](C)CO)C(=O)c2cc(NC(=O)c3ccncc3)ccc2O[C@@H]1CN(C)Cc1ccc(C(F)(F)F)cc1,-1,-10,1.8,i
CC(C)C(=O)Nc1ccc2c(c1)C(=O)N(C)[C@@H]1CC[C@@H](CC(=O)N[C@@H](C)c3ccccc3)O[C@H]1CO2,8,11,2.5,i
COc1cccc(C(=O)N[C@@H](CC(C)C)C(=O)N2CCC[C@H]2C(=O)NCc2ccccc2)c1,8,15,5.2,i
CN1CCN(C(=O)C[C@H]2C[C@@H]3c4cc(NC(=O)Nc5ccccc5)ccc4O[C@@H]3[C@@H](CO)O2)CC1,1,-3,-1.9,i
Cc1noc(C)c1NC(=O)Nc1ccc2c(c1)C(=O)N([C@@H](C)CO)C[C@@H](C)[C@H](CN(C)Cc1ccc3c(c1)OCO3)OCCCC[C@@H](C)O2,1,-1,-1.0,i

Some of these compounds in order of molecular weight, rising:
SMILES,Ecoli rRNA inh,Ecoli rRNA inh OD600,Ecoli rRNA inh RFP,FGF22 binding
CC(=O)Nc1cccc(-c2nc3ccccc3n2C(C)C(=O)NC(C)(C)C)c1 (configuration not stated),13,17,2.6,i
O=C(CN1CCOCC1)N1CC[C@H]2[C@H](CO)Nc3ccc(Br)cc3[C@H]21,0,10,0.7,i
CN1C(=O)c2cc(NC(=O)c3cccc(F)c3)ccc2OC[C@H]2O[C@@H](CC(=O)O)CC[C@@H]21,2,2,0.8,i
COc1cccc(C(=O)N[C@@H](CC(C)C)C(=O)N2CCC[C@H]2C(=O)NCc2ccccc2)c1,8,15,5.2,i
COCC(=O)Nc1ccc2c(c1)C(=O)N(C)[C@@H]1CC[C@@H](CC(=O)NC3CCCC3)O[C@@H]1CO2,4,4,0.9,i
CCCNC(=O)C[C@H]1C[C@@H]2c3cc(NC(=O)c4ccc5c(c4)OCO5)ccc3O[C@@H]2[C@H](CO)O1,-2,-9,-0.3,i
CC(=O)NCc1ccc(OCCCN2CCC(C(O)(c3ccccc3)c3ccccc3)CC2)cc1,12,17,2.7,i
CN1CCN(C(=O)C[C@H]2C[C@@H]3c4cc(NC(=O)Nc5ccccc5)ccc4O[C@@H]3[C@@H](CO)O2)CC1,1,-3,-1.9,i
Cc1noc(C)c1NC(=O)Nc1ccc2c(c1)C(=O)N([C@@H](C)CO)C[C@@H](C)[C@H](CN(C)Cc1ccc3c(c1)OCO3)OCCCC[C@@H](C)O2,1,-1,-1.0,i

Next part.
SMILES,Ecoli rRNA inh,Ecoli rRNA inh OD600,Ecoli rRNA inh RFP,FGF22 binding
C[C@@H]1CN([C@H](C)CO)C(=O)Cc2cc(NC(=O)CCCN(C)C)ccc2O[C@H]1CN(C)S(=O)(=O)c1cccs1,2,11,-2.2,i
COC(=O)C[C@@H]1CC[C@H]2[C@H](COc3ccc(NC(=O)c4cc(F)cc(F)c4)cc3C(=O)N2C)O1,-5,-3,-0.5,i
C[C@H](CO)N1C[C@H](C)[C@H](CN(C)C(=O)Nc2ccc(F)cc2)Oc2ccc(NC(=O)Nc3ccc4c(c3)OCO4)cc2C1=O,-4,-1,-0.5,i
C[C@H](O)[C@@H]1C(=O)N2CCc3c([nH]c4ccccc34)[C@@H]2C[C@@H]1N(C)C(=O)Nc1ccc(Br)cc1,-45,-78,-13,i
C[C@@H]1CN([C@@H](C)CO)C(=O)c2cc(NS(=O)(=O)c3ccc(F)cc3)ccc2O[C@@H](C)CCCCO[C@H]1CN(C)C(=O)Nc1ccccc1,-6,-6,-1.8,i
C[C@@H]1CN([C@@H](C)CO)C(=O)Cc2cc(NS(=O)(=O)c3ccccc3)ccc2O[C@H]1CN(C)S(=O)(=O)c1ccc(Cl)cc1,-2,-7,1.6,i
CN1c2ccc(-c3ccc(F)cc3)cc2[C@@H]2[C@@H](CCN2C(=O)c2ccncc2)[C@@H]1CO,-14,-28,2.5,i
COc1cccc(C(=O)Nc2ccc3c(c2)C(=O)N(C)[C@H]2CC[C@H](CC(=O)NCc4ccccc4F)O[C@@H]2CO3)c1,-7,-8,2.4,i
COc1cccc(C#Cc2ccc3c(c2)[C@@H]2[C@@H](CCN2C(=O)c2ccc(F)cc2)[C@@H](CO)N3)c1,1,18,1.5,i
COC(=O)C1=C(C)N(Cc2ccc(C(F)(F)F)cc2)C(=NCc2ccc(C(F)(F)F)cc2)NC1c1ccccc1C(F)(F)F (configuration not stated),20,20,4.0,i
C[C@H](CO)N1C[C@H](C)[C@@H](CN(C)C(=O)NC2CCCCC2)Oc2ccc(NS(=O)(=O)c3cn(C)cn3)cc2CC1=O,3,7,-0.7,i
C#CCN1C(=O)[C@]2(OCCC=C[C@H]2C)c2cc(OC)ccc21,34,26,2.1,i
CN1C(=O)c2cc(NC(=O)C3CC3)ccc2OC[C@@H]2O[C@H](CC(=O)NCc3cccc(F)c3)CC[C@@H]21,-6,-5,-1.5,i
Cc1noc(C)c1S(=O)(=O)Nc1ccc2c(c1)CC(=O)N([C@@H](C)CO)C[C@H](C)[C@H](CN(C)S(C)(=O)=O)O2,2,1,-2.1,i
O=C(C[C@H]1CC[C@H]2[C@@H](COC[C@@H](O)CN2Cc2cccc(C(F)(F)F)c2)O1)NCCc1ccncc1,-5,-10,-3.6,i
CC(C)C(=O)Nc1ccc2c(c1)C(=O)N(C)[C@@H]1CC[C@@H](CC(=O)NCc3cccc(F)c3)O[C@H]1CO2,2,5,-2.4,i
C[C@@H]1CN([C@H](C)CO)C(=O)Cc2cc(NC(=O)Nc3ccc(F)cc3)ccc2O[C@@H]1CN(C)C(=O)Nc1ccc(C(F)(F)F)cc1,-3,-11,3.9,i
C/C=C/c1ccc([C@H]2[C@@H](CO)N(C(C)=O)C23CN(C(=O)c2ccccc2)C3)cc1,0,-3,1.5,i
C[C@@H]1CCCCO[C@H](CN(C)C(=O)CCC(F)(F)F)[C@@H](C)CN([C@H](C)CO)C(=O)c2cc(NS(=O)(=O)c3cccs3)ccc2O1,2,4,1.0,i
C[C@@H]1CCCCO[C@H](CN(C)C(=O)Cc2ccccc2)[C@H](C)CN([C@@H](C)CO)C(=O)c2cc(NC(=O)NC3CCCCC3)ccc2O1,-4,-9,-0.5,i
C[C@@H]1CN([C@@H](C)CO)C(=O)c2cc(NC(=O)NC3CCCCC3)ccc2O[C@@H](C)CCCCO[C@@H]1CN(C)C(=O)c1ccncc1,-1,10,1.2,i
CCCNC(=O)[C@@H]1[C@@H](CO)[C@@H]2Cn3c(ccc(C4=CCCC4)c3=O)[C@H]1N2S(C)(=O)=O,0,-14,-1.4,i
C[C@H](O)[C@@H]1CN2CCc3c([nH]c4c(-c5ccccc5)cccc34)[C@@H]2C[C@@H]1N(C)C(=S)NCCc1ccccc1,-30*,-17*,9.6*,i
COC(=O)C[C@@H]1CC[C@H]2[C@H](COc3ccc(NC(=O)c4cccs4)cc3C(=O)N2C)O1,-6,-4,0.5,i
O=C(Cc1ccncc1)N1C[C@@H]2N[C@H](C1)C2c1ccc(-c2ccc(F)cc2)cc1 (some centres not stated),4,9,-2.0,i
CN1C(=O)c2cc(NC(=O)Nc3ccccc3F)ccc2OC[C@H]2O[C@H](CC(=O)O)CC[C@@H]21,-1,2,-1.3,i
C[C@H]1CCCCO[C@@H](CN(C)S(=O)(=O)c2cccs2)[C@@H](C)CN([C@@H](C)CO)C(=O)c2cc(NC(=O)NC3CCCCC3)ccc2O1,0,-1,1.6,i
CCCNC(=O)N(C)C[C@@H]1Oc2cc(C#CC(C)C)ccc2S(=O)(=O)N([C@@H](C)CO)C[C@H]1C,-2,-10,-2.9,i
CN1OC[C@@H]2CN3C(=Nc4cc(C(F)(F)F)cc(C(F)(F)F)c4)Sc4ccccc4[C@@H]3C[C@@H]21,16,18,18,i
COc1ccc(-c2nnn3c2C2c4cc(-c5cccc(F)c5)ccc4CCN2C(=O)C3)cc1 (configuration not stated),17,4,2.2,i

Additional entries follow.
Short forms: A = Ecoli rRNA inh; B = Ecoli rRNA inh OD600; C = Ecoli rRNA inh RFP; D = FGF22 binding
mol: COc1ccc(S(=O)(=O)N(C)C[C@@H]2OCCCC[C@@H](C)Oc3ccc(NC(=O)Nc4ccccc4)cc3C(=O)N([C@H](C)CO)C[C@@H]2C)cc1
  A: 0; B: 13; C: -3.7; D: i
mol: O=C(C[C@H]1CC[C@H]2[C@@H](COC[C@H](O)CN2Cc2ccc(Cl)cc2)O1)NCc1cccc(F)c1
  A: -9; B: -25; C: 3.5; D: i
mol: C[C@H](CO)N1C[C@H](C)[C@@H](CN(C)S(=O)(=O)c2cn(C)cn2)Oc2ccc(NC(=O)Cc3ccccc3)cc2CC1=O
  A: 0; B: 1; C: -1.7; D: i
mol: Cc1cccc(C)c1NC(=O)C1(C)CSCC(=O)N1CC(F)(F)F (configuration not stated)
  A: 5; B: 18; C: -0.8; D: i
mol: C[C@@H]1CCCCO[C@H](CN(C)C(=O)NC2CCCCC2)[C@H](C)CN([C@@H](C)CO)C(=O)c2cc(NS(C)(=O)=O)ccc2O1
  A: -4; B: -1; C: 0.1; D: i
mol: C[C@H]1CCCCO[C@H](CN(C)CC2CCCCC2)[C@@H](C)CN([C@@H](C)CO)C(=O)c2cc(NS(=O)(=O)c3ccc(Cl)cc3)ccc2O1
  A: -56; B: -77; C: -17; D: i
mol: C[C@H]1CCCCO[C@H](CN(C)C(=O)Nc2ccc(C(F)(F)F)cc2)[C@@H](C)CN([C@@H](C)CO)C(=O)c2cc(NC(=O)Cc3ccccc3)ccc2O1
  A: 4; B: -6; C: 3.2; D: i
mol: Cc1ccc(S(=O)(=O)Nc2ccc3c(c2)C(=O)N([C@H](C)CO)C[C@H](C)[C@@H](CN(C)Cc2ccccc2)OCCCC[C@@H](C)O3)cc1
  A: 6; B: -2; C: 4.5; D: i
mol: O=C(c1cccc(F)c1)N1C[C@H]2[C@@H](c3ccccc31)[C@@H](CO)N2C(=O)C1CCCC1
  A: 2; B: -1; C: -3.2; D: i
mol: COc1ccccc1C(=O)Nc1ccc2c(c1)C(=O)N(C)[C@H]1CC[C@H](CC(=O)NCc3ccc(Cl)c(Cl)c3)O[C@H]1CO2
  A: -4; B: -11; C: 1.1; D: i
mol: COc1ccc(-c2ccc3c(c2)[C@@H]2[C@@H](CCN2S(=O)(=O)c2ccc(OC)cc2)[C@H](CO)N3)cc1
  A: 0; B: -1; C: -1.3; D: i
mol: COc1ccc(NC(=O)Nc2ccc3c(c2)C(=O)N([C@H](C)CO)C[C@H](C)[C@@H](CN(C)S(=O)(=O)c2ccc(OC)cc2)OCCCC[C@@H](C)O3)cc1
  A: -1; B: -2; C: -0.7; D: i
mol: CC1(C(=O)NCc2ccccc2)CSCC(=O)N1Cc1cccs1 (configuration not stated)
  A: -3; B: 5; C: -0.9; D: i
mol: O=C(Nc1cc(F)ccc1F)N1CCCCN2[C@H](C1)[C@H](c1ccc(-c3cccnc3)cc1)[C@@H]2CO
  A: -5; B: -1; C: -0.9; D: i

An excerpt (hit frequency here may not be typical).
